ALR H2O2 inh = inhibitors of human sulfhydryl oxidase ALR; purified ALR, DTT oxidation, H2O2 HRP-luminol luminescence; inhibition, % (concentration not given with the values); 3.8% of 290,000 active; AID 485317;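 active means mean and each replicate at 75% or more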;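 further: stock transfer was 7.5 nL into about 7.5 µL; 0% = neutral wells and 100% = wells with inactivated enzyme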
Target sequence (P55789 whole entry, looked up): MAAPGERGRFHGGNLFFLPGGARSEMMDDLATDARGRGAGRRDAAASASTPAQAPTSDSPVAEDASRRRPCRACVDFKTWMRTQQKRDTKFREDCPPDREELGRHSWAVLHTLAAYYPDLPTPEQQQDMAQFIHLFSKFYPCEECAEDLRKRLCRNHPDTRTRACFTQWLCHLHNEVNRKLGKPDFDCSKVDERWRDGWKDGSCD
UCH37 DUB inh = inhibitors of human deubiquitinating enzyme UCH37 | Q9Y5K5 | purified proteasome/UCH37, Ub-AMC cleavage fluorescence | inhibition, % (test concentration not listed) | 0.33% of 330,000 active;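 active means mean of two replicates above 20%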;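 further: 0% = compound-free wells with enzyme and 100% = wells lacking proteasome; stock transfer was 100 nL into about 20 µL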
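Assay system: Proteasome-bound UCH37. Buffer or medium: pH 7.4 Tris-HCl (50 mM) with ovalbumin, ATP-MgCl2, DTT. Incubation: 30 min preincubation with enzyme, 25 min cleavage at room temperature. Measured by: fluorescence, ex 355 nm, em 460 nm. Read-out basis: percent inhibition. Control set: wells without proteasome as full block, compound-free enzyme plus substrate as uninhibited.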
LANA-H2A inh = blocks KSHV LANA binding to histone H2A/H2B. Q9QR71. cell-free LANA-H2A/H2B peptide, fluorescence polarization. inhibition, % (test concentration not listed). 0.6% of 320,000 active. AID 2629; in the data active means inhibition mostly above about 10%, no sharp cut-off; inactive means mostly below about 6.7%;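 further: stock transfer was 7.5 nL into about 10 µL; 0% = median of vehicle wells and 100% = median of positive control wells; one replicate is shown; the record names a cut of 25% in any replicate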
E coli growth = E. coli growth inhibition; Escherichia coli growth, OD600, 23 h; active compounds read low; OD600 absorbance (concentration not given with the values); 0.21% of 330,000 active; AID 1053175;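 active means OD600 absorbance below the run mean of sample wells minus 3.6 SD, in any replicate, cut at about 0.56 in these data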;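 further: stock transfer was 300 nL into about 60 µL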
FGF22 binding = shifts melting point of recombinant human FGF22; recombinant FGF22 thermal shift, SYPRO orange fluorescence; percent of sucrose octasulfate shift, DMSO zero; calls only at 9.99 µM; 1.5% of 340,000 active; AID 651658;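 active means melting point raised past a set limit in the mean and every replicate; three in four hits are not shown here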
Target sequence (Q9HCT0 whole entry, looked up): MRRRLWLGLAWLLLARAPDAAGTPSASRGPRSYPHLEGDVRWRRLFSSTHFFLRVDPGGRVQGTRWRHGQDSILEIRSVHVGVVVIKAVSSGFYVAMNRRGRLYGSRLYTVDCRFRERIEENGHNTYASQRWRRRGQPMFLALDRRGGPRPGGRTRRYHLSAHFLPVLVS
B2AR ag = activates human beta-2 adrenergic receptor causing internalization. P07550. Am2.2-beta2AR cells, FAP receptor internalization, flow cytometry; reference of the scale not given here. response, % (no concentration beside the values). 0.43% of 340,000 active;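 active means response above a set limit, near 3 SD of response in nonfluorescent compounds, cut at about 42% in these data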;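 further: stock transfer was 100 nL into about 11 µL; a reference agonist was the positive control; negative values mostly stem from fluorescent compounds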
HNF4A DNA FP = change in binding of human HNF4 alpha to DNA | AID 1224865 | activity change, % at 10 µM | 0.3% of 360,000 active | HNF4a-FITC DNA binding, fluorescence polarization, 1 h; in the data active means activity change above about 30%, passing the limit was not always enough;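 further: controls were the assay level and a saturating level of protein; the project sought stronger binding though the title names inhibitors; some compounds called inactive have numbers as strong as hits; positive values seem to mean higher polarization but the record does not say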
Target sequence (P41235 whole entry, looked up): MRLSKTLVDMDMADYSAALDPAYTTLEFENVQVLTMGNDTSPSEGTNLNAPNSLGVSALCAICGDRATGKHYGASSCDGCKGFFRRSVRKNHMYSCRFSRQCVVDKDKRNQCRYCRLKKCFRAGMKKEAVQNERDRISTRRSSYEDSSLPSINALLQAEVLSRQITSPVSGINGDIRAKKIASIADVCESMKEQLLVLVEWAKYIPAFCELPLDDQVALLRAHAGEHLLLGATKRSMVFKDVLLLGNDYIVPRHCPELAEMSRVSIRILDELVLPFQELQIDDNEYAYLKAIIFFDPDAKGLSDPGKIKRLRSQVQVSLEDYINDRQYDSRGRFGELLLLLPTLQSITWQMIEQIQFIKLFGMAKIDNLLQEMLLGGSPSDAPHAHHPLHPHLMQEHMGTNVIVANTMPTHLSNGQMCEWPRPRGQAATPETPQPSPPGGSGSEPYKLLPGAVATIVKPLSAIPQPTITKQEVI
An asterisk follows results filed as active; i = inactive; . = not tested or not shown; & = joins results of further samples. These rows are one share of the data (hit frequency here may not be typical).

Below each compound – ALR H2O2 inh	UCH37 DUB inh	LANA-H2A inh	E coli growth	FGF22 binding	B2AR ag	HNF4A DNA FP
O=C(NC1CCCCC1)c1n[nH]c2c1CCCCC2
  55	.	4.7	.	i	-13	3.1
CCCCNc1c(-c2ccc(-c3cccc(Cl)c3)cc2)nc2ccccn12
  .	-303	-6.1	0.74	i	1	0.8&5.7
COc1ccccc1NC(=S)NC(=O)CCCOc1ccc(Cl)cc1Cl
  2	1.2	-4.6	0.67	i	6	-2.0
Cn1nc(C(=O)NC2CCCCC2)c2c1-c1ccccc1SC2
  2	-2.1	1.3	0.71	i	7	0.7
O=C(Nc1cccc2c1CCCC2)C1CCCN(S(=O)(=O)c2cccc3nonc23)C1 (centres undefined)
  1	0.2	1.6	0.75	.	-8	2.9
COC(=O)c1ccc(NC(=O)CN2CCC(NC(=O)c3ccco3)CC2)cc1
  -1	1.6	11	0.65	i	4	6.8
NC1=NC2(CCCCC2)N=C(Nc2ccc(F)cc2F)N1
  -2	4.4	6.3	0.71	.	-3	-1.3
CCC(C)N(C(=O)CSc1nc(-c2ccccc2)cs1)C1CCS(=O)(=O)C1 (centres undefined)
  -19	2.6	1.9	0.73	.	-1	1.6
COc1ccc(/C=C2/C(=N)N3N=C(CC(=O)N4CCCC4)SC3=NC2=O)cc1
  14	16	1.2	0.68	i	0	-0.8
Cc1cccc(C2=NC(C(F)(F)F)(C(F)(F)F)c3c(n(-c4ccc(F)cc4)c(=O)[nH]c3=O)N2)c1
  -1	i	1.0	0.73	i	5	0.4
Cn1c(CNC(=O)c2ccccc2F)nnc1SCc1ccc(Cl)cc1
  .	1.3	7.6	0.67	i	-1	-3.0
CC1(C)CC(=O)C2=C(C1)N1C(=C(C#N)C2c2ccccc2Cl)N=C(N)c2ccccc21 (centres undefined)
  -2	5.2	-0.6	0.76	i	6	3.8
Clc1ccc(Sc2cnc3ccccc3n2)cc1
  -6	0.1	-3.8	0.72	.	2	-1.3
CCOc1ncccc1C(=O)OCC(=O)NC1CCCCCC1
  .	0.6	.	0.72	.	-5	-0.6
Cc1ccc(S(=O)(=O)NCCC(=O)Nc2ccc(Cl)c(Cl)c2)cc1
  -9	3.4	2.2	0.69	.	-3	3.2
CCC(c1nnnn1C1CCCC1)N1CCN(C(=O)c2ccco2)CC1 (centres undefined)
  2	0.6	6.0	0.73	.	-13	-0.5
COc1ccc(S(=O)(=O)N(C)CC(=O)NC2CCCC2)cc1OC
  5	-3.4	-1.2	0.72	i	0	1.0
CCOC(=O)c1c(-c2ccc(-c3ccccc3)cc2)csc1NC(=O)CCN1CCOCC1
  .	1.7	-2.7	0.65	i	10	-2.6
CCc1ccccc1NC(=S)NCc1cccn1C
  1	1.7	-2.5	0.7	.	5	1.6
COc1ccc(S(=O)(=O)NCC2CCC(C(=O)NCc3ccco3)CC2)cc1 (centres undefined)
  -16	1.7	-2.6	0.74	.	-6	-5.5
COc1ccc(C2=NNC(=O)C2(C)Br)cc1 (centres undefined)
  .	.	.	.	i	-5	-3.9
COc1ccccc1CC(=O)NC1CC(C)(C)NC(C)(C)C1
  2	5.1	7.8	0.68	.	2	0.6
CCN(CC(=O)NCc1cccs1)C(=O)c1ccc(NS(=O)(=O)c2ccc(C(C)=O)cc2)cc1
  .	1.4	.	0.69	i	-8	-4.7
C(=C\c1ccco1)/C1=NN(c2ccccc2)C(c2ccco2)C1 (centres undefined)
  59	i	-1.3	0.68	.	-10	33
O=C(O)C1CCCC2CN3CCc4c([nH]c5ccccc45)C3C(O)C21 (centres undefined)
  -38	-12	4.8	0.7	i	6	-20
CCOCCCNC(=S)N1CCN(C(=O)C(=O)Nc2ccc(C(=O)OC)cc2)CC1
  0	4.0	0.3	0.72	i	-3	-0.4
CCOC(=O)Nc1sc(NS(=O)(=O)c2ccccc2)nc1C
  98*	4.2	-0.2	0.67	.	0	0.9
CCc1ccccc1NC(=S)N(Cc1ccco1)C(C)c1cccs1 (centres undefined)
  -5	4.8	-4.5	0.72	i	13	-6.4
CCN(CC)S(=O)(=O)c1ccc(O)c(C(=O)OCC(=O)N(C)Cc2ccccc2)c1
  1	-12	3.1	0.76	.	-5	-0.5
CCOC(=O)Cc1csc(NC(=O)Cn2cnc3c2c(=O)n(C)c(=O)n3C)n1
  -8	4.8	0.2	0.66	.	1	-1.1

Reformatted as a markdown table: three of the compounds above.
| SMILES | ALR H2O2 inh | UCH37 DUB inh | LANA-H2A inh | E coli growth | FGF22 binding | B2AR ag | HNF4A DNA FP |
| --- | --- | --- | --- | --- | --- | --- | --- |
| CCOCCCNC(=S)N1CCN(C(=O)C(=O)Nc2ccc(C(=O)OC)cc2)CC1 | 0 | 4.0 | 0.3 | 0.72 | i | -3 | -0.4 |
| CCOC(=O)Nc1sc(NS(=O)(=O)c2ccccc2)nc1C | 98* | 4.2 | -0.2 | 0.67 | . | 0 | 0.9 |
| CCc1ccccc1NC(=S)N(Cc1ccco1)C(C)c1cccs1 (centres undefined) | -5 | 4.8 | -4.5 | 0.72 | i | 13 | -6.4 |

Six compounds already listed, sorted by number of heavy atoms, largest number first.
Below each compound – ALR H2O2 inh	UCH37 DUB inh	LANA-H2A inh	E coli growth	FGF22 binding	B2AR ag	HNF4A DNA FP
CCN(CC(=O)NCc1cccs1)C(=O)c1ccc(NS(=O)(=O)c2ccc(C(C)=O)cc2)cc1
  .	1.4	.	0.69	i	-8	-4.7
CCOCCCNC(=S)N1CCN(C(=O)C(=O)Nc2ccc(C(=O)OC)cc2)CC1
  0	4.0	0.3	0.72	i	-3	-0.4
O=C(O)C1CCCC2CN3CCc4c([nH]c5ccccc45)C3C(O)C21 (centres undefined)
  -38	-12	4.8	0.7	i	6	-20
C(=C\c1ccco1)/C1=NN(c2ccccc2)C(c2ccco2)C1 (centres undefined)
  59	i	-1.3	0.68	.	-10	33
CCOC(=O)Nc1sc(NS(=O)(=O)c2ccccc2)nc1C
  98*	4.2	-0.2	0.67	.	0	0.9
COc1ccc(C2=NNC(=O)C2(C)Br)cc1 (centres undefined)
  .	.	.	.	i	-5	-3.9

Following part.
Below each compound – ALR H2O2 inh	UCH37 DUB inh	LANA-H2A inh	E coli growth	FGF22 binding	B2AR ag	HNF4A DNA FP
O=C(OCCN1C(=O)c2ccccc2C1=O)c1ccco1
  0	0.5	-0.8	0.68	.	4	0.7
CCOC(=O)C1=C(Cc2ccc(OC)cc2)C(=O)c2ccccc2C1=O
  .	-71	.	0.65	.	-77	1.0
CC(NC(=O)COC(=O)C1CC1C)c1ccccc1 (centres undefined)
  -2	4.8	-2.6	0.69	i	-2	-1.6
O=C(/C=C/c1ccccc1)N1CCN(c2ccc([N+](=O)[O-])c(N3CCOCC3)c2)CC1
  -1	5.3	-2.4	0.68	.	-9	1.7
CC1OC(Nc2ccc(OC(F)(F)F)cc2)C(O)C(O)C1O (centres undefined)
  -2	1.0	5.0	0.71	.	-1	-3.2
Cc1ccc(NC(=O)C2CC(=O)NC(N3CCc4ccccc43)=N2)cc1 (centres undefined)
  -28	3.6	1.0	0.65	.	-4	7.0
Cc1cccc(N2C(=O)N3[C@@H]4c5ccccc5OC[C@@H]4[C@@H](c4ccccc4)[C@]3(C)C2=O)c1
  -8	2.4	-1.2	.	.	-8	-2.7
COc1ccc(NC(=O)CC2CC3CCC2C3)cc1S(=O)(=O)N1CCOCC1 (centres undefined)
  -4	5.0	0.1	0.67	i	-7	6.0
CC(C)c1cc(=O)n2[nH]c(SCc3ccccc3Cl)nc2n1
  4	5.0	-0.8	0.63	i	9	-1.9
Cc1c(O)ccc2c(CC(=O)N[C@@H](Cc3ccc(O)cc3)C(=O)O)cc(=O)oc12
  53	i	-0.2	0.7	i	1	-4.3
COc1cc(C2C3C(=O)N(c4ccccc4)C(=O)C3ON2c2ccccc2)cc(OC)c1OC (centres undefined)
  -4	0.8	1.6	0.69	.	-8	-1.0
CC1(C)Cc2c(sc(/N=C/N3CCCCCC3)c2C#N)C(C)(C)N1
  -2	.	-2.7	.	i	-16	-1.1
COc1ccc(N=Cc2c(O)c3ccccc3n2C(C)=O)cc1
  .	8.9	-4.2	0.7	i	6	97*
O=C(NC1CC2CCCC(C1)N2S(=O)(=O)c1ccccc1)C1CCCCC1 (centres undefined)
  0	4.5	0.6	0.66	i	-4	0.7
O=[N+]([O-])c1ccc2[nH]c(O)c(N=NC(=S)Nc3cccnc3)c2c1
  7	9.1	-0.8	0.66	i	4	-4.0
CS(=O)(=O)N1CCN(C(=O)c2ccccc2F)CC1
  -7	-1.3	-9.5	0.75	.	2	1.0
CC(=O)N1CCOc2ccc(S(=O)(=O)NCC3CCC(C(=O)NCCC(C)C)CC3)cc21 (centres undefined)
  -2	3.0	10	0.63	i	-1	-2.3
O=c1c(O)c(-c2ccccc2)oc2ccccc12
  .	.	.	.	i	-2	2.3
CCOC(=O)N1CCN(CC(O)COC2CC(C)CCC2C(C)C)CC1 (centres undefined)
  -20	6.5	-5.6	0.78	.	-3	2.9
Cc1c(Cl)cccc1N1CC(C)(C)C1=O
  -1	1.7	0.8	0.65	i	-4	1.5
COC(=O)C1=C(C)NC(=S)NC1c1ccc(-c2ccccc2C(=O)OC)o1 (centres undefined)
  41	-1.9	-3.6	0.71	i	-11	0.3
CC(NC(=O)c1ccccc1)c1ccc(F)cc1 (centres undefined)
  -12	1.7	-1.1	0.65	i	-4	-0.3
Cc1ccc(OCC(=O)NNC(=S)NCc2ccccc2)cc1
  -4	4.0	-5.0	0.7	i	6	5.7
O=C(Nc1nnc(-c2ccco2)o1)c1ccc(Cl)cc1
  .	6.1	-1.3	0.44*	i	-2	-0.4
N/C(=N\c1nc2ccccc2o1)NC(=O)c1ccccc1F
  -6	0.3	2.1	0.77	.	-9	4.8
COc1cccc(C2c3[nH]c4ccccc4c3CCN2C(=O)c2ccccc2F)c1OC (centres undefined)
  -1	3.1	1.1	0.7	i	12	-0.4
CC(C)n1nccc1NC(=O)Nc1ccccc1
  -4	4.1	2.8	0.7	i	8	0.9
CC(=O)Nc1cccc(OCC(O)Cn2c(C)nc3ccccc32)c1 (centres undefined)
  -2	0.2	-6.4	0.69	.	3	1.4
Cc1ccc(CCNS(=O)(=O)c2cc3c(cc2Cl)NC(=O)CO3)cc1
  .	4.5	-8.0	0.79	i	14	-2.0
Cc1ccc(NC(=O)C2CCN(S(=O)(=O)c3cccnc3)CC2)cc1C
  1	4.3	6.1	0.68	i	-7	-3.6
CCc1cccc(C)c1NC(=O)CCCC(=O)O
  -4	1.5	5.6	0.66	.	5	1.5
CCc1ccccc1S(=O)(=O)Cc1ccc(C(=O)NC2CCCC2)o1
  -3	-0.1	-4.2	0.69	i	2	0.7

Bioassay records: PubChem, several laboratories
